Assay outcomes from PubChem BioAssay.
HSD17B inhib = HSD17B dehydrogenase inhibition; Potency, µM (titrated, usually from 57.1 µM), inactives show at the highest dose activity change, negative = inhibition, most hits filed as inhibitors; recombinant HSD17B10, NADH fluorescence kinetic; many of its hits are not listed in these tables; Q99714; 7.6% of 75,000 active; active = well fitted inhibition curve with a large enough effect; inconclusive = small, poorly fitted or top-dose-only effect; inactive = no such curve, though single readings can be large or run the other way;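 note: the protocol describes HADH2 (HSD17B10) and not the HSD17B4 of the title; nearly all actives have a fitted effect of over 70% in size; most hits overshoot -100% by far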
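Enzyme plus compound, 15 min room temperature; substrate mix added (NAD+ 1 mM, beta-hydroxybutyryl-CoA 90 uM final); plates read kinetically for NADH fluorescence. HADH2 was His-tagged, E. coli-derived, 20 nM.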
* marks the source's active call; other numbers are inactive results; ? = inconclusive; [ ] = remark or other dose. % is set by controls: 0 for no effect and ±100 for the full control effect; potency is the fitted concentration of half-maximal effect. Not all compounds are listed. The share of hits here may be higher or lower than overall.

| smiles | HSD17B inhib |
| --- | --- |
| CC(=O)CSc1nnc(CSc2ncccn2)n1C1CCCCC1 | -4% |
| Cc1cccc(N(C)S(=O)(=O)c2ccc3[nH]cc(C(=O)N4CCOCC4)c(=O)c3c2)c1 | 32µM* |
| COc1ccc2[nH]c(=O)c(CN(Cc3ccc4c(c3)OCO4)C(C)=O)cc2c1 | ? |
| CC1Cc2ccccc2N1C(=O)COc1nc2ccccc2nc1N1CCOCC1 (stereo unspecified) | 37%[activator] |
| C/C(=N\O)C(=O)NCCN1CCCCC1 | 9% |
| COc1ccc(-c2csc(C3=C(O)CN(Cc4ccc(S(N)(=O)=O)cc4)C3=N)n2)cc1OC | -16% |
| CCOC(=O)C1CCN(C(=O)C2c3ccccc3C(=O)N(C)C2c2ccc(OC)cc2)CC1 (stereo unspecified) | 13% |
| O=C(NCC1CCCO1)c1nnc(Cc2ccc(F)cc2)o1 (stereo unspecified) | -3% |
| CCOC(=O)N1CCN(C(=O)c2cn(CCOC)c(=O)c3c2c2ccccc2n3C)CC1 | 25µM* |
| Cc1ccc(C(=O)CC(C(=O)O)c2cn(CCC#N)c3ccccc23)cc1 (stereo unspecified) | ? |
| N#Cc1ccc(C23CC4(C2)[C@H](CN(CC2CCCCC2)[C@@H]4c2ccccc2)C3c2ccc(C(F)(F)F)cc2)cc1 (stereo partly specified) | 11% |
| O=C(NCCN1CCOCC1)c1ccc2c(c1)N(Cc1ccccc1)CCS2 | 25µM* |
| Cc1nc(S(=O)(=O)N(C)Cc2ccccc2)c(C#N)c(C)c1Cl | 7% |
| Cn1c(=O)c2c(-c3ccncc3)c3c(nc2n(C)c1=O)-c1ccccc1C3=O | 9% |
| Cc1cccc(OCC(=O)Nc2ccccc2N2CCN(C(=O)C(C)C)CC2)c1C | 14% |
| CCOC(=O)C1CCCN(C(=O)c2cc(=O)c3ccccc3o2)C1 (stereo unspecified) | 0% |
| CCN(CC)c1ccc(NC(=O)c2cccc(OC)c2)c(C)c1 | -8% |
| Cc1c2cccn2cc[n+]1C | 4% |
| CC(=O)N1CCc2cc(NS(=O)(=O)c3cccs3)ccc21 | 4% |
| Nc1nc2c(ncn2C2OC(COC(=O)c3ccccc3)C(OC(=O)c3ccccc3)C2OC(=O)c2ccccc2)c(=O)[nH]1 (stereo unspecified) | 1% |
| CCOc1ncccc1C(=O)OCc1cc(=O)oc2c(C)c(C)ccc12 | 9% |
| CN(Cc1ccc(-n2cccn2)cc1)C(=O)c1cnn2c1NC(c1ccco1)CC2C(F)(F)F (stereo unspecified) | -6% |
| CC(C)OC(=O)C(NC(=O)c1ccccc1)=C1CCCCC1 | 1% |
| CCOC(=O)C1CCCN(C(=O)c2cc3ncc(Br)cn3n2)C1 (stereo unspecified) | 2% |
| CCCC1(C(=O)OCC)NC(c2ccc(N(C)C)cc2)C2C(=O)N(c3ccc(F)cc3)C(=O)C21 (stereo unspecified) | -17% |
| CC1(C)CC(=O)C2=C(C1)Nc1ccccc1NC2c1ccccn1 (stereo unspecified) | 5% |
| [O-][N+]1=C2CCC/C(=N\O)C2=NC12CCCCC2 | 9% |
| NC(=O)c1cccc2c3c([nH]c12)CCCC3 | 11% |
| O=C(CN1C(=O)C2C3C=CC(C3)C2C1=O)NC1CCCc2ccccc21 (stereo unspecified) | 1% |
| O=C(O)CCSCc1ccc(I)cc1 | 6%[11.4 µM] |
| Cn1cc(-c2nc3cnc(N4CCNCC4)nc3n(CCC#N)c2=O)c2ccccc21 | -6% |
| CO[C@@H]1/C=C\O[C@]2(C)Oc3c(C)c(O)c4c(O)c(c(CN5CCN(C)CC5)c(O)c4c3C2=O)NC(=O)/C(C)=C\C=C[C@@H](C)[C@@H](O)[C@H](C)[C@@H](O)[C@H](C)[C@H](OC(C)=O)[C@@H]1C | -12%[11.4 µM] |
| COc1ccc2nc(NC(=O)c3ccc(-n4nc(C)cc4C)cc3)sc2c1 | 25µM* |
| Cc1nnc(SCCn2c(N3CCCCC3)nc3c2c(=O)[nH]c(=O)n3C)s1 | 18% |
| O=C(NCCCNC(=O)c1cccs1)c1cccs1 | -1% |
| O=C(NCc1ccc2c(c1)OCO2)c1nnc(Cc2ccc(Cl)cc2)o1 | 9% |
| Cc1cccc(N2CCN(C(=O)CCn3c(=O)[nH]c4ccccc4c3=O)CC2)c1C | -8% |
| CN(c1ccc(OCc2nnc(-c3ccccc3)o2)cc1)S(=O)(=O)c1ccccc1 | -2% |
| CCOc1cc(C2NC(=O)NC(O)(C(F)(F)F)C2C(=O)c2ccc(Cl)cc2)ccc1O (stereo unspecified) | -4% |
| Cc1ccc(CNC(=O)C2(CC(C)C)C=CCN2C(=O)c2ccccc2)o1 (stereo unspecified) | -9% |
| O=C(CSC1CCCCC1)Nc1nccs1 | -4% |
| COCCCNC(=O)c1ccc(N(C)S(C)(=O)=O)cc1 | -18% |
| N#Cc1cc2c([nH]c1=S)CCCCCC2 | ? |
| CCOC(=O)C1CCN(S(=O)(=O)Cc2ccccc2)C1=O (stereo unspecified) | -6% |
| COC(=O)c1cc(-c2ccc(OC)c(OC)c2)n[nH]1 | 2% |
| CCn1c(SCC(=O)Nc2nc(-c3ccc(C)cc3)cs2)nnc1-c1ccccc1O | ? |
| CC(=O)N(CC(O)CN(C(C)=O)c1c(I)c(C(=O)NC[C@@H](O)CO)c(I)c(C(=O)NC[C@@H](O)CO)c1I)c1c(I)c(C(=O)NC[C@@H](O)CO)c(I)c(C(=O)NC[C@@H](O)CO)c1I | 3%[25.6 µM] |
| COC(=O)C(NC(=O)c1ccccc1)=C(C)C | 6% |
| CC(C)CC(=O)Nc1ccc2oc(-c3ccncc3)nc2c1 | 13µM* |
| COC(=O)[C@@]1(Cc2ccc(F)cc2)[C@H]2c3cc(C(=O)N(C)C)n(Cc4ccccc4)c3C[C@H]2CN1C(=O)c1ccccc1 | ? |

The results go on.
| smiles | HSD17B inhib |
| --- | --- |
| O=C(OCC(=O)N1CCN(C(=O)c2ccco2)CC1)c1ccccc1C(=O)c1ccccc1 | -1% |
| OC1c2ccccc2-c2nc3ccccc3cc21 (stereo unspecified) | 25µM* |
| COC(=O)c1cc2ccccc2c(=O)s1 | -9% |
| O=C(c1ccccc1C(=O)N1CCN(c2ccc(F)cc2)CC1)N1CCN(c2ccc(F)cc2)CC1 | -18% |
| CCCCCCCCC(=O)NCc1cc(OC)c(O)cc1I | 1% |
| COc1ccc2cc(C(=O)NCc3ccco3)c(=O)oc2c1 | 32µM* |
| Cc1csc(NC(=O)c2ccco2)n1 | 1% |
| COc1cccc(OCC(O)CN2CCC(Cc3ccccc3)CC2)c1 (stereo unspecified) | 0% |
| N#CCCn1cc(C(CC(=O)c2ccccc2)C(=O)O)c2ccccc21 (stereo unspecified) | -3% |
| COc1ccc(-n2nc(C(=O)N3CCCCC3)c3ccccc3c2=O)cc1 | 3% |
| COc1cc(OC)c(Nc2cc(C)nc3nc(C)nn23)cc1Cl | -1% |
| COc1ccc2c(c1)[n+]([O-])c(/C(C)=N/NC(N)=S)c(C)[n+]2[O-] | -15%[11.4 µM] |
| CC(=O)OC[C@@H]1O[C@@H](O/N=C2/C[C@@H](O)[C@@H](O)[C@@H]3[C@H]4C(=O)N(c5ccc(F)cc5F)C(=O)[C@@H]4CC[C@H]23)[C@H](OC(C)=O)[C@H](OC(C)=O)[C@@H]1OC(C)=O | 3%[11.4 µM] |
| COC(=O)c1c(-c2ccncc2)csc1NC(=O)c1ccoc1C | -29% |
| C=CCn1c(COc2ccccc2)nnc1SCC(=O)Nc1ccc2c(c1)OCCO2 | -3% |
| Nc1[nH]c(=S)[nH]c(=O)c1N=Nc1c(Br)cc(S(N)(=O)=O)cc1Br | -6%[11.4 µM] |
| Oc1ccc(Cl)cc1-c1cc(-c2ccccc2)n[nH]1 | -6% |
| CCN1C(=O)[C@H]2[C@H]3[C@H](O)[C@H](O)C/C(=N/OCc4ccccc4)[C@H]3CC[C@@H]2C1=O | 0%[11.4 µM] |
| Cc1nc(N2CCOCC2)[nH]c(=O)c1CCC(C)C | 1% |
| Cn1c(=O)c(C(=O)Nc2ncccc2O)c(O)c2ccccc21 | -4% |
| COC(=O)c1cn(CC(=O)NCc2ccco2)c2ccccc12 | 8% |
| CCOC(=O)Nc1cc(C(=O)OCC)c(C)nc1C | 3% |
| CCn1c(CC(C)C)n[nH]c1=S | 7% |
| COc1ccc(CN(C(=O)c2cccs2)c2nccs2)cc1OC | 1% |
| C[C@@H](CCC(=O)O)C(=O)O | 5%[11.4 µM] |
| CC(C)CC(=O)Nc1cccc(-c2nc3ccccc3o2)c1 | ? |
| COCC(C)n1c(COc2ccccc2F)nnc1SCc1c(C)noc1C (stereo unspecified) | -1% |
| CC1CC(N(C(=O)c2ccco2)c2ccccc2)c2ccccc2N1 (stereo unspecified) | -15% |
| Cc1c(CN(C)C(=O)CSc2nc(-c3ccco3)cc(C(F)(F)F)n2)cnn1C | -4% |
| O=C1NCCN1C(=O)c1cccc(Cl)c1 | 3% |

Entries shown so far that contain a Cl atom:
| smiles | HSD17B inhib |
| --- | --- |
| Cc1nc(S(=O)(=O)N(C)Cc2ccccc2)c(C#N)c(C)c1Cl | 7% |
| O=C(NCc1ccc2c(c1)OCO2)c1nnc(Cc2ccc(Cl)cc2)o1 | 9% |
| CCOc1cc(C2NC(=O)NC(O)(C(F)(F)F)C2C(=O)c2ccc(Cl)cc2)ccc1O (stereo unspecified) | -4% |
| COc1cc(OC)c(Nc2cc(C)nc3nc(C)nn23)cc1Cl | -1% |
| Oc1ccc(Cl)cc1-c1cc(-c2ccccc2)n[nH]1 | -6% |
| O=C1NCCN1C(=O)c1cccc(Cl)c1 | 3% |

Additional records
| smiles | HSD17B inhib |
| --- | --- |
| O=C(NC(Cc1ccccc1)C(=O)NCc1ccccn1)c1ccco1 (stereo unspecified) | 1% |
| Cc1ccc(CCNC(=O)CCNS(=O)(=O)c2ccc3c(c2)c(=O)n(C)c(=O)n3C)cc1 | -6% |
| COc1ccc(-c2ccc(-c3noc(-c4ccccc4C)n3)c(OC)n2)cc1 | 10µM* |
| CCCCn1c(Cl)nc2c1c(=O)n(C)c(=O)n2C | 4% |
| O=C(CCCCn1c(=O)c2ccccc2n(Cc2ccc(Cl)cc2)c1=O)NCc1ccco1 | -10% |
| COc1ccc(OC)c(C2C(C(=O)N(C)C)=C(C)Nc3nc4ccccc4n32)c1 (stereo unspecified) | -30% |
| O=C1CCCc2c1[nH]c1ccc(Br)cc21 | -4% |
| CCOc1ccc(C(=O)N2CCN(C(=O)c3ccco3)CC2)cc1OCC | 9% |
| COCCOCC(O)CN1CCN(c2ccccc2)CC1 (stereo unspecified) | -3% |
| Cc1cccc2c(=O)oc(-c3ccc4c(c3)C(=O)N(CC3CCCO3)C4=O)nc12 (stereo unspecified) | -3% |
| CCn1nccc1C(=O)NC1=C(C#N)CCC1 | -2% |
| O=C(Nc1ccc(N2CCOCC2)cc1)Nc1ccc2nc(-c3ccco3)c(-c3ccco3)nc2c1 | ? |
| O=S(=O)(c1cccc2cccnc12)N1CCOCC1 | -1% |
| COc1ccc(Br)cc1-c1nc(C)c(C(C)=O)n1O | -14% |
| O=C(Nc1ccc(Br)cc1F)c1sccc1-n1cccc1 | 17% |
| CCCCNC(=O)c1c(C)cc(=O)oc1C | -8% |
| COC(=O)c1ccc(-n2nnnc2SCC(=O)Nc2cc(OC)ccc2OC)cc1 | 4% |
| O=S(=O)(c1ccc(S(=O)(=O)N2CCCN(Cc3ccccc3)C2)cc1)N1CCCCCC1 | -7% |
| CCN1CCN(C(c2cc3cccc(C)c3[nH]c2=O)c2nnnn2Cc2ccccc2)CC1 (stereo unspecified) | -27% |
| O=C1[C@H]2[C@H]3[C@H](O)[C@H](O)C/C(=N/OC[C@@H](O)COCc4ccco4)[C@@H]3CC[C@@H]2C(=O)N1Cc1ccc2c(c1)OCO2 | -3%[11.4 µM] |
| O=C(NCCc1ccccc1)C1CCCN1C(=O)Nc1ccc(F)cc1 (stereo unspecified) | 3% |
| O=C(CCCn1c(=S)[nH]c2ccsc2c1=O)NCc1ccco1 | -12% |
| Cn1c(SCC(=O)NC2CCCC2)nc2cccnc21 | 22% |
| Cc1ccc2[nH]c(=O)c(C(c3nnnn3CC3CCCO3)N3CCCc4ccccc43)cc2c1 (stereo unspecified) | 32µM* |
| CS(=O)(=O)N(CC(=O)NCc1ccccn1)c1ccc2c(c1)OCCO2 | 4% |
| Cc1ccc(CNC(=O)COC(=O)c2c(C)noc2C)cc1 | 1% |
| O=C(Nc1ccccc1C(=O)OCn1nnc2ccccc2c1=O)c1ccco1 | -21% |
| CCOC(=O)N1CCN(C2=NC3(CCCCC3)C(C#N)C(=O)N2)CC1 (stereo unspecified) | -1% |
| Cc1ccc(-n2nnnc2SCC(=O)NCCC2=CCCCC2)c(C)c1 | -7% |
| Clc1ccccc1OCCN1CCCCC1 | 10% |
| O=C(O)c1ccc(NCc2ccc3c(c2)OCO3)cc1 | 3% |
| CCCSc1nnc(N2C(=O)CC(c3ccsc3)C3=C2CCCC3=O)s1 (stereo unspecified) | -2% |
| CCn1ncc(C2=NOC(C(=O)NCc3ccccc3)C2)c1C (stereo unspecified) | -10% |
| COc1ccc(OC)c(C2C(C#N)=C(N)Oc3c2c(C)nn3-c2ccc(C)cc2)c1 (stereo unspecified) | 21% |
| Cc1ccc(-n2c(C)cc(C(=O)CSc3nnnn3C)c2C)cc1 | -1% |
| O=S(=O)(c1cccs1)N1CCN(c2ncccn2)CC1 | -8% |
| CCCCC(=O)c1c(O)c2ccccc2oc1=O | 2% |
| O=c1c(-c2ccc3c(c2)OCCO3)coc2c(CN3CCOCC3)c(O)ccc12 | ? |
| CO[C@@H]1COC(=O)[C@@H](C)COC(=O)[C@@H](C)NC(=O)C/C=C\[C@@H]1C | -2%[11.4 µM] |
| CC1CCN(S(=O)(=O)c2cccc(C(=O)Nc3nccs3)c2)CC1 | 3% |
| Cn1cccc1C(=O)N1CCC2(CCN(Cc3ccccc3)CC2)CC1 | -3% |
